Bioassay records: PubChem, National Center for Advancing Translational Sciences (NCATS)
gsp agonist: agonists of gsp mutant (McCune-Albright syndrome); Potency, µM (titrated, usually from 76.9 µM), for inactives: at the highest dose activation (cAMP increase), usual class: activators; 0.13% of 340,000 active; gsp mutant cells, cAMP HTRF, 30 min; control for the full effect not named in the record; active = well fitted activation curve with a large enough effect; inconclusive = small, poorly fitted or top-dose-only effect, or another doubt; inactive = no such curve, though single readings can be large or run the other way; cell line not stated here;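 also: phosphodiesterase inhibitor Ro 20-1724 added with compounds to block cAMP breakdown; potency is read from the fitted curve at half-maximal effect; nearly all actives have a fitted effect of over 60% in size; about a fifth of the inactives were tested at one dose only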
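Cells in DMEM/10% FBS with G418 were pretreated with compounds in DMSO plus […] (300 uM stock) for 30 min at 37C. cAMP was measured by HTRF (cAMP-d2 plus anti-cAMP antibody-K) after 30 min at room temperature.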
CtBP-E1A inh: blocks the CtBP interaction with E1A | 0.49% of 340,000 active | activity change, % (test concentration not listed) | AlphaScreen GST-E1A/His-CtBP binding, 1536-well; active compounds read low; control for the full effect not named in the record; in the data active means activity change below about -65%; inconclusive means about -30% to -65%; inactive means above about -30%; also: % is scaled to controls: 0 for no effect and ±100 for the full control effect
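GST-E1A and His-tagged CtBP (125 nM each as 5X stock) were preincubated with pin-transferred compound for 2 h at 37 °C in the dark, then glutathione donor and nickel acceptor beads were added for 1 h before AlphaScreen reading.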
gsp antagonist: antagonists of gsp mutant (McCune-Albright syndrome); AID 624288; 0.4% of 340,000 active; gsp-mutant cells, cAMP HTRF, 30 min; control for the full effect not named in the record; Potency, µM (highest dose often 76.9 µM), without a hit: at the highest dose activity change, negative = inhibition, usual class: inhibitors; active = falling curve of any shape with a large fitted effect; inconclusive = falling curve, mostly with a smaller effect; inactive = flat or rising curve; cell line not stated here;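 also: intracellular cAMP measured with PDE inhibitor Ro 20-1724 present during compound exposure; potency is read from the fitted curve at half-maximal effect; % is scaled to controls: 0 for no effect and ±100 for the full control effect; nearly all actives have a fitted effect of over 65% in size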
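Cells, 2000/well, grown 16–24 h in DMEM 10% FBS with 0.5 mg/ml G418, then compounds plus […] (300 uM addition stock), 30 min at 37C. cAMP read by HTRF (cAMP-d2 and anti-cAMP antibody-K in lysis buffer) after 30 min RT.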
Six1-Eya2 blk: blocks human Six1 binding to Eya2; Q15475+O00167; AlphaScreen GST-Six1/His-Eya2 binding, biochemical; active compounds read low; control for the full effect not named in the record; activity change, % (concentration not given with the values); 0.56% of 360,000 active; AID 651725; in the data active = activity change below about -65%; inconclusive = about -30% to -65%; inactive = above about -30%; also: % is scaled to controls: 0 for no effect and ±100 for the full control effect
Target sequence (O00167 whole entry, looked up): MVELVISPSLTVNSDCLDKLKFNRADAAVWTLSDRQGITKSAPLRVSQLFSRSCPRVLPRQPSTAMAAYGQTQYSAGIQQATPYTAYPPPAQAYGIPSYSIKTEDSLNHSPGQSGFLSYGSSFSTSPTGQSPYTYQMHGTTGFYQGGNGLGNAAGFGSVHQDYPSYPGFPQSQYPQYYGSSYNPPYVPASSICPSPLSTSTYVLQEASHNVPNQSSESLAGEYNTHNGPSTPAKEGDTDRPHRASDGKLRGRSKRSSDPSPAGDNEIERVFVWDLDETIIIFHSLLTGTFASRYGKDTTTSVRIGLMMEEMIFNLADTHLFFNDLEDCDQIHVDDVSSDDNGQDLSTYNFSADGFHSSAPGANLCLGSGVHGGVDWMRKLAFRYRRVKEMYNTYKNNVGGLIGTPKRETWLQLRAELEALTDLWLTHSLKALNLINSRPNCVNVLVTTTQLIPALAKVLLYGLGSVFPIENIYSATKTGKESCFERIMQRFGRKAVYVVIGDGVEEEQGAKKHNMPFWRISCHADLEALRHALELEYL
Target sequence (Q15475 whole entry, looked up): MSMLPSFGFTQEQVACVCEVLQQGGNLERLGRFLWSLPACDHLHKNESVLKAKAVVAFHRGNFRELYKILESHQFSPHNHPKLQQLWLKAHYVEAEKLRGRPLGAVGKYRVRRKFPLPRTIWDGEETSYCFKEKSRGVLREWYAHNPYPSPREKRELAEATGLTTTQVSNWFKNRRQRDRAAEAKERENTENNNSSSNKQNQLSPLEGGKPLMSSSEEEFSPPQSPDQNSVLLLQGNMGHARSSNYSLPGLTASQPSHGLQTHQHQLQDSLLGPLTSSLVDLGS
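GST-Six1 + His-Eya2 (5X stock: 250/500 nM); Tris pH 8.0, 300 mM NaCl, 0.05% BSA, 0.02% Tween 20; GSH donor/Ni acceptor beads; 1 h 37 °C dark; AlphaScreen readout.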
D2 PAM: potentiates the human D2 dopamine receptor allosterically; DiscoveRx D2 beta-arrestin cells, luminescence, 90 min; 100% = 57 uM dopamine signal; AID 624464; potentiation, % (concentration not given with the values); P14416; 0.23% of 360,000 active; active = potentiation of 50% or more; inconclusive = 30% to 50%; inactive = 30% or less;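 also: compound concentration not given in the record; tested on top of an EC20 dose of dopamine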
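PathHunter D2 cells, attached overnight at 37 deg C, received compound in DMSO plus dopamine at EC20 (50 nM final) for 90 min at 37 deg C. Beta-arrestin recruitment was read as luminescence after 1 h with detection reagent at ambient temperature.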
D2 ag: agonists of human D2 dopamine receptor (beta-arrestin); DiscoveRx PathHunter D2 beta-arrestin, luminescence, 90 min; 100% = 57 uM dopamine signal; activation, % (no concentration beside the values); P14416; 0.084% of 360,000 active; in the data active = activation above about 40%; inconclusive = about 15% to 40%; inactive = below about 15%; also: compound concentration not given in the record; the text of the record calls up to 30% inactive
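Agonist mode: compounds alone added to overnight-plated D2 PathHunter cells for 90 min at 37 C, with 57 uM final dopamine (EC100) defining full response. Beta-arrestin recruitment detected by chemiluminescent reagent, read after 1 h at ambient temperature.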
The depositor's hits bear a star; ? = inconclusive; nt = not tested or not shown; [ ] = remark or other dose.

SMILES | gsp agonist | CtBP-E1A inh | gsp antagonist | Six1-Eya2 blk | D2 PAM | D2 ag
COC(=O)C(NC(=O)C(NC(=O)c1ccccc1)C(C)C)C(C)C (configuration not stated) | ? | 12 | 16% | 0 | -5 | -0.9
Cc1nc2sccn2c1-c1nc(-c2cc3ccccc3o2)cs1 | 3% | ? | -12% | ? | -12 | -3.0
Cn1c(=N)n(CC(=O)c2ccc(Br)s2)c2ccccc21 | ? | 0 | 7% | 0 | -29 | -3.1
Cn1c(=O)c2c(ncn2CC(=O)Nc2ccc3c(c2)OCO3)n(C)c1=O | ? | 11 | 27% | -3 | -12 | -5.5
COCc1cc(C)n(CC(=O)NCc2ccccc2)c(=O)c1C#N | -13% | 12 | -9% | -2 | 0 | 0.5
CNC(=O)Nc1cccc(-c2cc(-c3c(Cl)cccc3Cl)no2)c1 | 22%[15.4 µM] | -5 | -22% | -4 | 7 | 2.9
CNC(=S)N1N=C(c2ccccc2)CC1c1ccc(Br)cc1 (configuration not stated) | -47%[inhibitor] | -3 | -3% | -6 | -9 | 0.0
CN(C)S(=O)(=O)c1ccc(NC(=O)COc2cccc3c2OC(C)(C)C3)cc1 | -36% | -1 | ? | -6 | -20 | -5.5
O=S1(=O)CCOC[C@H](Cc2ccccc2)N1Cc1cccc(C(F)(F)F)c1 | nt | -24 | -3% | 15 | -33 | 3.6
COCCn1c(=S)[nH]c2cc(C(=O)NCCCN3CCOCC3)ccc2c1=O | 3% | 44 | 9% | 0 | -5 | -0.9
CC(C)c1ccc(S(=O)(=O)Nc2ccc(N3CCOCC3)cc2)cc1 | -3%[15.4 µM] | 9 | -2% | -16 | 0 | -2.1
O=C(COC(=O)/C=C/c1cccs1)NC(c1ccccc1)c1ccccc1 | -6%[15.4 µM] | 7 | 8% | 10 | 15 | 0.0
Cn1c(-c2sc3cc(C(F)(F)F)cnc3c2-c2cccnc2)n[nH]c1=S | -30% | 3 | -32% | -3 | 8 | 1.2
CCS(=O)(=O)/N=C(\N)c1ccccc1 | -39%[inhibitor] | 6 | -7% | 5 | 0 | -1.8
Cc1nn(C(=O)c2cc3sccc3[nH]2)c(C)c1C | 0% | 9 | -8% | 4 | -3 | -0.4
COc1ccc(S(=O)(=O)/N=C2/NC(=O)/C(=C\c3ccco3)S2)cc1 | 24% | -1 | -17% | -10 | 18 | 0.2
O=C(Nc1cccc(-c2cn3ccccc3n2)c1)c1cccc(Cl)c1 | -45%[inhibitor] | 11 | 6% | 3 | -7 | 11
CC1=NN(C(N)=S)C(=O)C1N=Nc1ccccc1C (configuration not stated) | 10% | 0 | -17% | 3 | -45 | -11
CCCCn1c(N)c(N(CC(C)C)C(=O)C2CCN(c3ncnc4sc(C)c(C)c34)CC2)c(=O)[nH]c1=O | -1% | 13 | -8% | -4 | -5 | -3.8
COc1ccc2c(c1)C(=NN)c1cc(OC)ccc1-2 | 15% | -9 | -3% | -17 | -4 | -0.3
O=C(COC(=O)CCc1c[nH]c2ccccc12)Nc1ccccc1C(F)(F)F | -65%[inhibitor] | -4 | 1% | -1 | 3 | -5.4
COc1ccc(C(=O)Nn2cc3c(c2-c2ccccc2)c(=O)n(C)c(=O)n3C)cc1 | -18% | 4 | -12% | -3 | -4 | -1.1
CCOC(=O)c1cnc2c(C)cc(Cl)cc2c1N1CCN(C)CC1 | 24%[15.4 µM] | -1 | -25% | -5 | -16 | -1.5
CS(=O)(=O)c1cccc(C(=O)NCc2ccccc2)c1 | 3% | -10 | 6% | -3 | -4 | 1.5
COc1ccc(Cc2nc3ccc(S(=O)(=O)N4CCOCC4)cc3[nH]2)cc1 | ? | 7 | 7% | 3 | -2 | -2.3
COc1ccc(OCC(=O)Nc2ccccc2Cl)cc1 | -1%[15.4 µM] | 12 | 4% | 7 | 0 | -8.8
O=C(O)c1sc2cc(C(F)(F)F)cnc2c1-c1ccccc1 | 1% | -2 | -3% | -5 | 15 | 1.6
Cn1cncc1C#Cc1ccc2c(=O)c3ccccc3oc2c1 | nt | 0 | -8% | -3 | -6 | 0.1
CN1OC[C@@H]2CN(Cc3ccc4c(c3)OCO4)[C@H](c3ccc(N4CCCCC4)cc3)C[C@@H]21 | nt | ? | nt | ? | -9 | -6.9
O=C(Nc1cc(SCCO)cc([N+](=O)[O-])c1)c1ccc(Br)o1 | -8% | -11 | -28% | -7 | -11 | -1.7
O=C(c1ccccc1)c1ccc(N2CCOCC2)c(NC(=O)c2ccco2)c1 | ? | -13 | -11% | -16 | -11 | -4.5
O=C(COC(=O)c1ccc[nH]c1=O)c1ccc(Cl)s1 | -17% | -11 | -6% | -7 | 26 | -3.5
COC(=O)Nc1nnc(-c2ccncc2)s1 | -2% | 3 | 5% | 1 | 15 | 5.7
Cc1ccc(NC2CCCN(C(=O)CSc3ccncc3)C2)cc1C (configuration not stated) | 14% | 4 | -20% | -4 | -1 | 3.8
COc1ccc(NC(=O)c2onc(C)c2Cl)cc1OC | 26% | 24 | 8% | 10 | -1 | -1.5
CS(=O)(=O)N1CCN(c2ccccc2NC(=O)c2ccco2)CC1 | 8% | 8 | -9% | 4 | 11 | -0.6
CCN1C(=O)/C(=C/N(C)c2ccccc2)OC1=S | 1% | 5 | -7% | 8 | -7 | 2.2
CC(=O)Nc1ccccc1Sc1ccc2c3c(cccc13)C(=O)N(c1ccc(C)cc1)C2=O | -3%[15.4 µM] | 14 | -7% | 0 | -20 | -1.3
COc1ccc(-c2ccc(=O)n(Cc3ccccc3)n2)cc1 | -17% | nt | -11% | 10 | -5 | 0.7
C/C=C/C(=O)OCC(=O)Nc1cc([N+](=O)[O-])ccc1Cl | 11% | 3 | 0% | 8 | -1 | 1.0
N#CC1=C(N)OC2=C(CCc3ccccc32)C1c1ccccc1Cl (configuration not stated) | -1% | -4 | 12% | -1 | -15 | 3.7
O=[N+]([O-])c1ccccc1N/N=C/c1cc2ccccc2nc1Cl | -71%[inhibitor] | -18 | 1% | -25 | 3 | 2.2
CCOc1nc(-c2ccccc2)c2cc(C)ccc2n1 | ? | nt | -6% | 10 | -11 | 1.4
C[C@H](CO)N1C[C@H](C)[C@@H](CN(C)C(=O)NC2CCCCC2)Oc2c(NS(=O)(=O)c3cccs3)cccc2C1=O | -23% | 4 | 5% | 0 | 0 | 0.7
CCCCOc1ccc(C(=O)Nc2cccc(-n3cnnn3)c2)cc1OC | 13% | -1 | -7% | 3 | 16 | 1.6
O=C(OCC(=O)N1CCc2ccccc2C1)c1ccc(Cl)c([N+](=O)[O-])c1 | -9% | nt | -15% | -10 | -7 | -3.0
Cc1cc(NC(=O)c2ccc([N+](=O)[O-])cc2Cl)ccc1NC(=O)c1ccco1 | 1% | -3 | 12% | 0 | 7 | 2.9
COc1ccc(N2CC(C(=O)N3CCN(c4ccccc4)CC3)CC2=O)cc1 (configuration not stated) | 4%[15.4 µM] | 5 | 3% | 4 | -5 | 2.9
Cc1cc(C(=O)CSc2nnc(-c3ccc4c(c3)OCO4)o2)c(C)n1-c1ccc(F)cc1 | -17% | -6 | -1% | 3 | 16 | 1.5
CC(=O)c1ccc(NC(=O)CCNC(=O)c2ccccc2Cl)cc1 | -10%[15.4 µM] | 5 | ? | -5 | -8 | 0.4

Arranged by length of the SMILES (rising): 9 of the compounds above.
SMILES | gsp agonist | CtBP-E1A inh | gsp antagonist | Six1-Eya2 blk | D2 PAM | D2 ag
CCOc1nc(-c2ccccc2)c2cc(C)ccc2n1 | ? | nt | -6% | 10 | -11 | 1.4
COc1ccc(-c2ccc(=O)n(Cc3ccccc3)n2)cc1 | -17% | nt | -11% | 10 | -5 | 0.7
CCCCOc1ccc(C(=O)Nc2cccc(-n3cnnn3)c2)cc1OC | 13% | -1 | -7% | 3 | 16 | 1.6
O=[N+]([O-])c1ccccc1N/N=C/c1cc2ccccc2nc1Cl | -71%[inhibitor] | -18 | 1% | -25 | 3 | 2.2
C/C=C/C(=O)OCC(=O)Nc1cc([N+](=O)[O-])ccc1Cl | 11% | 3 | 0% | 8 | -1 | 1.0
COc1ccc(N2CC(C(=O)N3CCN(c4ccccc4)CC3)CC2=O)cc1 (configuration not stated) | 4%[15.4 µM] | 5 | 3% | 4 | -5 | 2.9
O=C(OCC(=O)N1CCc2ccccc2C1)c1ccc(Cl)c([N+](=O)[O-])c1 | -9% | nt | -15% | -10 | -7 | -3.0
Cc1cc(C(=O)CSc2nnc(-c3ccc4c(c3)OCO4)o2)c(C)n1-c1ccc(F)cc1 | -17% | -6 | -1% | 3 | 16 | 1.5
C[C@H](CO)N1C[C@H](C)[C@@H](CN(C)C(=O)NC2CCCCC2)Oc2c(NS(=O)(=O)c3cccs3)cccc2C1=O | -23% | 4 | 5% | 0 | 0 | 0.7

(listing goes on)
SMILES | gsp agonist | CtBP-E1A inh | gsp antagonist | Six1-Eya2 blk | D2 PAM | D2 ag
Cc1noc(C)c1CNCc1ccccc1 | 26% | 10 | 3% | 2 | -10 | -1.1
c1ccc(-n2ncc3c(NCc4cccnc4)ncnc32)cc1 | -6% | -1 | -9% | -14 | -1 | -1.6
Cc1nn(C(=O)c2cccs2)c(N)c1-c1ccccc1 | -39% | -2 | -6% | -8 | -1 | 0.2
COc1ccc(OCC(=O)Sc2ccc(C)cc2)cc1 | ? | 5 | 15%[15.4 µM] | -1 | 20 | 3.0
CCOCCOC(=O)c1ccc(NC(=O)c2cc3ccccc3o2)cc1 | 5% | 2 | -26% | -4 | -4 | -1.7
Cc1cccc(C)c1OCc1cc(C(=O)N2CCN(c3ccccc3)CC2C)no1 (configuration not stated) | -58%[inhibitor] | 1 | -16% | ? | -7 | -1.9
O=S(=O)(Nc1ccc(Cl)cn1)c1ccc(Cl)cc1 | 2% | 5 | 4% | 9 | -3 | -0.3
O=C(CN(Cc1ccccc1F)C(=O)Cn1nnc(-c2cccs2)n1)NCC1CCCO1 (configuration not stated) | 9% | 4 | -5% | 1 | -7 | 2.7
O=C(CC(CC(=O)c1ccccc1)c1ccncc1)c1ccccc1 | 4% | -1 | -1% | 2 | -1 | 1.8
CCOC(=O)c1cc(C#N)c(Oc2ccccc2)nc1-c1ccccc1 | 5% | 8 | -3%[15.4 µM] | 19 | -18 | -4.5
CC(C)Cc1cc(C(=O)N2CCCC(C(=O)c3cc(F)ccc3F)C2)n(C)n1 (configuration not stated) | -3% | 2 | -11% | 3 | -2 | 1.7
COc1ccc2nc(NC(=O)NC3CCCCC3)sc2c1 | -22% | nt | -7% | 1 | -10 | -2.1
Cc1cc(C)cc(NC(=O)c2c(C)nc3ccccn23)c1 | -36%[inhibitor] | 0 | 1% | 0 | 11 | 11
CC(=O)c1ccc(N(CC(=O)NC2CCCC2)C(=O)c2csnn2)cc1 | 25% | -5 | 8% | -1 | -6 | -1.4
COc1ccc(N(CC(=O)Nc2cccc([N+](=O)[O-])c2C)S(C)(=O)=O)cc1OC | -2% | -6 | 9% | -4 | -3 | -1.0
